Screens deposited in PubChem BioAssay by National Center for Advancing Translational Sciences (NCATS).
SARS PLpro yeast – qHTS of Yeast-based Assay for SARS-CoV PLP | S. cerevisiae expressing SARS-CoV PLpro, growth rescue; control for the full effect not named in the record | Potency, µM (titrated, usually from 32.9 µM), for the others: top-dose activity, positive = growth rescue | 0.19% of 330,000 active | AID 485353, 2010; note: 0% is about no effect; nearly all actives have a fitted effect of over 55% in size; growth read by luminescence after 48 h
LASV entry inh – qHTS for Inhibitors of binding or entry into cells for Lassa Virus. Potency, µM (doses to about 37.9 µM), inactives show at the top dose activity change, negative = inhibition, hits mostly inhibitors. AID 540256, 2011. 1.2% of 300,000 active. Lassa virus pseudotype entry inhibition, cell reporter; control for the full effect not named in the record; active means well fitted inhibition curve with a large enough effect; inconclusive means small, poorly fitted or top-dose-only effect, or effect the other way; inactive means flat fitted curve, though single readings scatter; tested in HEK293 cells; note: % is set by controls: 0 for no effect and ±100 for the full control effect; nearly all actives have a fitted effect of over 50% in size; luciferase read-out
Cruzain Triton – qHTS Assay for Promiscuous and Specific Inhibitors of Cruzain (with detergent) | Cruzipain (Trypanosoma cruzi), P25779 | purified cruzain, Z-FR-AMC fluorescence, 0.01% Triton | Potency, µM, inactives show max response, negative = inhibition, usual class: inhibitors | 0.43% of 200,000 active; active = well fitted curve in the direction sought with a large enough effect; inconclusive = small, poorly fitted or top-dose-only effect, or another doubt; inactive = no such curve, though single readings can be large; an effect the other way counts as inactive or inconclusive;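 note: plate controls were neutral wells for no effect and buffer without enzyme for full effect; nearly all actives have a fitted effect of over 40% in size; top concentration of the series not given in the record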
Target sequence (P25779 123-467 limits assumed): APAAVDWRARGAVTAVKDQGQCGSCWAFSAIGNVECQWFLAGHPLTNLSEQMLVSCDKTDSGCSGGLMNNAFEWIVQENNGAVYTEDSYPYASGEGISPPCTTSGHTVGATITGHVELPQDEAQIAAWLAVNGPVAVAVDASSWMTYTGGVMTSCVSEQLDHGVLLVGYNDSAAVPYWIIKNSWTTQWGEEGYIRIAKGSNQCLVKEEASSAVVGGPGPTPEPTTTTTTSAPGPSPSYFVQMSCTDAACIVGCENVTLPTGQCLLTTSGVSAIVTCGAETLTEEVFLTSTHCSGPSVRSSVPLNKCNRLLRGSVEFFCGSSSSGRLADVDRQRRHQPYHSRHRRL
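15 min RT preincubation of 1.5 nM cruzain with compound, then 2 uM Z-FR-AMC added; kinetic AMC fluorescence, 60 s delta. Triton X-100 0.01%, pH 5.5.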
Cruzain noTriton – qHTS Assay for Promiscuous and Specific Inhibitors of Cruzain (without detergent) | 2.3% of 200,000 active | Cruzipain (Trypanosoma cruzi), P25779 | Potency, µM, for inactives: max response, negative = inhibition, most hits filed as inhibitors | purified cruzain, Z-FR-AMC fluorescence, no detergent | AID 1476, 2009; active = well fitted curve in the direction sought with a large enough effect; inconclusive = small, poorly fitted or top-dose-only effect, or another doubt; inactive = no such curve, though single readings can be large; an effect the other way counts as inactive or inconclusive;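 note: plate controls were enzyme without inhibitor for no effect and buffer without enzyme for full effect; nearly all actives have a fitted effect of over 40% in size; top concentration of the series not given in the record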
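Purified cruzain at 1.5 nM, pre-incubated 15 min with compound at room temperature in 100 mM sodium acetate pH 5.5, 5 mM DTT, 0.00005% Triton X-100. Reaction started with 2 uM Z-FR-AMC; AMC fluorescence increase over 60 s gives rate.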
Marburg entry inh – qHTS for inhibitors of binding or entry into cells for Marburg Virus; AID 540276, 2011; Potency, µM (titrated, usually from 37.8 µM), without a hit: at the top dose activity change, negative = inhibition, actives largely listed as inhibitors; 1.8% of 300,000 active; Marburg virus pseudotyped entry inhibition, cell reporter; control for the full effect not named in the record; about a third of the inactives were read at about 46 µM; active = well fitted inhibition curve with a large enough effect; inconclusive = small, poorly fitted or top-dose-only effect, or effect the other way; inactive = flat fitted curve, though single readings scatter; tested in HEK293 cells; about a fifth of its hits are not listed in these tables; note: % is set by controls: 0 for no effect and ±100 for the full control effect; luciferase read-out
NS1 inh – qHTS Assay for Inhibitors of Influenza NS1 Protein Function. S. cerevisiae slowed by influenza A NS1, growth recovery by OD600. Potency, µM (highest dose often 46.1 µM), for the others: at the top dose activity, positive = more growth. 0.4% of 270,000 active. AID 2326, 2010; note: actives are rising curves; nearly all actives have a fitted effect of over 50% in size
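In this qHTS, NS1 from influenza A is expressed in budding yeast, where it slows growth. Cells are switched from glucose to 2% galactose medium (pH 6.0, -URA), treated with compound, and growth recovery is read at OD600.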
StopGo reporter – High Throughput Screening for Foot and Mouth Disease Virus Antivirals; AID 1159524, 2015; Potency, µM (top dose mostly 57.9 µM), without a hit: at the highest dose signal change, negative = less light; 1.2% of 410,000 active; human cells with a luciferase reporter of 2A StopGo recoding; control for the full effect not named in the record; active = well fitted falling curve with a large enough effect; inconclusive = small, poorly fitted or top-dose-only effect; inactive = no such curve, though single readings can be large or run the other way; tested in HEK293T cells; note: % is set by controls: 0 for no effect and ±100 for the full control effect; nearly all actives have a fitted effect of over 45% in size; luciferase light after 4 h
RE007 growth inh – qHTS Assay for Inhibitors of the HIV-1 protein Vpr; AID 651644, 2012; 0.21% of 360,000 active; S. pombe RE007 Vpr strain, BacTiter-Glo ATP luminescence, 24 h; control for the full effect not named in the record; Potency, µM (highest dose often 92.2 µM), for inactives: top-dose activity change, negative = less growth; active = well fitted falling curve with a large enough effect; inconclusive = small, poorly fitted or top-dose-only effect; inactive = no such curve, though single readings can be large or run the other way;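 note: % is set by controls: 0 for no effect and ±100 for the full control effect; nearly all actives have a fitted effect of over 50% in size; the assay follows cell death caused by Vpr and the record does not say whether a fall means rescue or toxicity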
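Fission yeast RE007 carrying one integrated HIV-1 vpr copy, seeded at OD 0.01 in PMG+AL medium with 23 nL pinned compound. Grown 24 h at 30 degrees; viability read by BacTiter-Glo luminescence after 5 min.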
Starred values were filed as active, the others as inactive; u = inconclusive; x = no result given; [ ] = dose if it differs, or a comment. Unless noted, calls come from the whole dose curve; as a rule, active means well fitted rising curve with a large enough effect; inconclusive means small, poorly fitted or top-dose-only effect; inactive means no such curve, though single readings can be large or run the other way. Potency is the fitted concentration of half-maximal effect.

SMILES	SARS PLpro yeast	LASV entry inh	Cruzain Triton	Cruzain noTriton	Marburg entry inh	NS1 inh	StopGo reporter	RE007 growth inh
O=C(N/N=C/c1sc(N2CCOCC2)nc1-c1ccccc1)c1ccccc1F	0.2%	u	x	x	1.5%[46.1 µM]	1.1%	u	1.1%
Cc1occc1C(=O)N=Nc1c(O)[nH]c2ccc(Br)cc12	-24.9%	x	-3.0%	12.6µM*	4.5%	0.4%	x	x
CCCCCc1nnc(NC(=O)OCCC)s1	-9.7%	-2.6%	1.3%	11.0%	8.0%	-67.1%	0.0%	5.7%
CCOc1ccc(N(CC(=O)Nc2ccc(C)c(C)c2)S(=O)(=O)c2c(C)noc2C)cc1	-17.5%	x	-9.0%	1.6%	x	-62.6%	u	-19.8%
O=C(NCc1ccccc1Cl)c1ccc(-c2ccccc2)cc1	-4.2%	-23.2%	-3.2%	u	-0.2%	-5.4%	44.7%[activator]	0.3%
COc1cc(OC)cc(C(=O)N2CCC(n3c(C)nc4cc(F)ccc43)CC2)c1	3.9%	9.3%	9.4%	u	15.7%	-17.3%	-27.0%	-7.6%
O=[N+]([O-])c1cccc(/C=N/N=C\c2ccccc2)c1	-3.8%	19.8%[46.1 µM]	x	x	u	6.4%	24.1%	-10.1%
O=C(CSc1nnnn1C1CCCC1)Nc1cccc(NC(=O)c2ccco2)c1	-0.3%	3.6%	-4.3%	-1.8%	-21.0%	-6.7%	x	3.1%
CN(Cc1cccs1)C(=O)CN1CCN(S(=O)(=O)c2ccc3c(c2)OCCCO3)CC1	-1.7%	1.6%[46.1 µM]	x	x	0.1%	x	-21.4%	0.5%
CCCCCN1CSC(=S)N(Cc2ccccc2)C1	-30.6%	-4.4%	-9.2%	-7.3%	-4.7%	1.3%	-19.3%	-24.5%
CCC(=NCc1ccco1)c1c(C(F)(F)F)[nH]n(-c2nc3ccccc3s2)c1=O	6.5%	u	-11.0%	12.7%	-0.6%	0.9%	-16.3%	-2.7%
Cc1[nH]c2ccccc2c1Cc1n[nH]c(=S)n1C	10.4%	14.5%	-2.9%	-5.1%	7.4%	13.1%	-8.0%	-8.0%
CCOC(=O)CSc1nc(C(C)C)nc2ccccc12	-9.0%	u	0.3%	1.6%	12.1%	-12.3%	-12.4%	-10.1%
COCCn1c(Sc2nc(C)cs2)nc2c1c(=O)[nH]c(=O)n2C	0.7%	9.0%	2.9%	-0.1%	2.0%	2.7%	-14.9%	-7.3%
COc1cc(NC(=O)C2CCN(S(=O)(=O)c3cccc4nonc34)CC2)cc(OC)c1	1.7%	4.0%	-7.8%	-4.0%	-18.0%	15.4%	u	10.5%
CC(C)CCNC(=O)C1CCC(=O)N1C(C)C (centres undefined)	9.1%	1.8%	4.7%	-0.1%	6.1%	-0.9%	-8.7%	-17.6%
O=Cc1cn(CC(O)Cn2cc(C=O)c3ccccc32)c2ccccc12	-0.6%	20.7%	x	x	u	-6.5%	-13.0%	-6.8%
Cc1cc(C)n2c(SCC(=O)NC3CCCCC3C)nnc2n1 (centres undefined)	5.6%	x	x	x	2.5%[46.1 µM]	x	1.2%	3.4%
Cc1cccc(C)c1NC(=O)CCCSc1nnnn1C	2.1%	-22.1%	5.9%	-0.5%	2.1%	-0.4%	6.9%	16.4%
Cc1nnc(SCC(=O)Nc2sccc2C(N)=O)n1Cc1ccccc1	1.2%	28.7%	0.9%	-2.8%	2.4%	1.4%	x	-4.1%
O=c1c2c([N+](=O)[O-])cc([N+](=O)[O-])cc2sn1Cc1ccccc1	-11.9%	u	x	x	-4.9%[46.1 µM]	-59.2%	-10.1%	-38.3%
CC(=O)Nc1ccc(S(=O)(=O)Nc2cc(C)c(-n3nc4ccccc4n3)cc2O)cc1	-0.5%	u	-4.8%	27.4%	-14.6%	-77.7%	u	7.5%
COc1ccccc1NC(=O)C(CC(C)C)NC(=O)C1CCCCC1 (centres undefined)	0.1%	-0.4%	-1.0%	-2.4%	-9.1%	-5.0%	29.8%	4.6%
Cc1ccc(NC(=O)CC(=O)Nc2ccc(C)cc2C)c(C)c1	-0.2%	x	x	x	x	-5.5%	-0.9%	-15.6%
COc1ccc(C2(C)NC(=O)N(CC(=O)c3ccc4c(c3)OCO4)C2=O)cc1 (centres undefined)	3.5%	1.2%	x	x	22.4%	0.6%	-9.2%	3.0%

Single records, from the list above. Order of values: SARS PLpro yeast	LASV entry inh	Cruzain Triton	Cruzain noTriton	Marburg entry inh	NS1 inh	StopGo reporter	RE007 growth inh
Results for CC(=O)Nc1ccc(S(=O)(=O)Nc2cc(C)c(-n3nc4ccccc4n3)cc2O)cc1 → -0.5%	u	-4.8%	27.4%	-14.6%	-77.7%	u	7.5%
Results for O=C(N/N=C/c1sc(N2CCOCC2)nc1-c1ccccc1)c1ccccc1F → 0.2%	u	x	x	1.5%[46.1 µM]	1.1%	u	1.1%
Results for Cc1cc(C)n2c(SCC(=O)NC3CCCCC3C)nnc2n1 (centres undefined) → 5.6%	x	x	x	2.5%[46.1 µM]	x	1.2%	3.4%
Results for Cc1ccc(NC(=O)CC(=O)Nc2ccc(C)cc2C)c(C)c1 → -0.2%	x	x	x	x	-5.5%	-0.9%	-15.6%

More compounds follow:
SMILES	SARS PLpro yeast	LASV entry inh	Cruzain Triton	Cruzain noTriton	Marburg entry inh	NS1 inh	StopGo reporter	RE007 growth inh
CC(C)Oc1ccc(C2(C#N)CC[N+](C)(C)CC2)cc1	-9.4%	2.9%	1.9%	1.9%	u	-1.5%	0.0%	u
CCNC(=S)Nc1scc(-c2ccccc2)c1C(=O)OCC	-20.2%	-5.2%	-4.5%	-3.1%	-18.5%	3.4%	25.5%	0.2%
Cc1ccccc1NCC(=O)N/N=C/c1c[nH]c2ccccc12	-4.8%	u	x	x	-23.1%	x	-11.7%	1.1%
C(=N\Nc1nc2ccccc2[nH]1)/c1ccncc1	0.4%	u	x	x	u	x	0.3%	0.4%
NC(=O)CN1CCN(S(=O)(=O)c2ccc(Cl)cc2)CC1	-0.6%	12.0%	x	x	-2.7%[46.1 µM]	3.8%	16.9%	13.1%
CCN1C(=O)/C(=C2\SC(=S)N(NC(=O)c3cccnc3)C2=O)c2ccccc21	-0.3%	x	x	x	x	-2.8%	-22.4%	-6.7%
COc1ccc(C(=O)N[C@H](C(=O)NCc2ccc(C)cc2)C(C)C)cc1	-1.0%	u	x	x	3.0%[46.1 µM]	17.7%	13.5%	8.6%
COc1ccc(NC(=O)Cn2c(=O)n(Cc3ccccc3)c(=O)c3sc4ccccc4c32)cc1	x	-0.4%[46.1 µM]	1.2%	-2.1%	-9.3%[46.1 µM]	x	-11.7%	x
CCOC(=O)c1c(C)n(C)c2cc(Br)c(OC)cc12	0.4%	4.4%	x	x	3.7%[14.2 µM]	-1.1%	-13.6%	-4.0%
O=C(Nc1ccccc1)c1ccc(S(=O)(=O)N(CCO)CCO)cc1	4.6%	4.0%	6.4%	-7.9%	-2.0%	-0.7%	-0.8%	0.3%
O=C(NC1CCN(S(=O)(=O)c2ccc(F)cc2)CC1)C1CCCCC1	3.7%	7.9%[46.1 µM]	x	x	0.6%[46.1 µM]	u	-11.6%	0.0%
CCOC(=O)C1=C(C)C(c2ccccc2OC)NC(=S)N1 (centres undefined)	9.3%	-20.2%	1.2%	-2.3%	8.6%	3.3%	-24.9%	0.3%
Cc1ccc(NC(=O)CN2C(=O)N/C(=C/c3ccc4c(c3)OCCO4)C2=O)cc1	1.6%	u	x	x	0.9%[46.1 µM]	12.8%	-6.4%	-6.2%
O=C1CN(C(=S)Nc2ccc(OC(F)F)cc2)CCN1	1.6%	2.6%	x	x	11.4%[46.1 µM]	x	-1.9%	-0.7%
CCOc1cc(/C=C(/C#N)C(=O)Nc2ccc(O)cc2)cc(Br)c1O	-29.4%	u	-1.5%	-13.4%	u	7.4%	-13.4%	7.4%
COc1cccc(NC(=O)CN(C)C(=O)c2cc(-c3ccco3)nc3ccccc23)c1	-3.2%	-11.9%	x	x	u	x	-21.3%	17.0%
CC(=O)N[C@@H](Cc1c[nH]c2ccccc12)C(=O)NCCc1ccc(S(N)(=O)=O)cc1	0.6%	u	x	x	-13.8%	-3.8%	-0.2%	1.6%
COCCCNC(=O)c1ccc(Cn2c(=O)c3ccccc3n(CC(N)=O)c2=O)cc1	x	u	-0.3%	-2.2%	7.1%[46.1 µM]	x	11.0%	x
Cc1nn(CC(=O)N2N=C(C(F)F)CC2(O)C(F)F)c(C)c1[N+](=O)[O-] (centres undefined)	-12.8%	9.3%	-0.7%	10.6%	-6.5%	10.9%	-12.4%	x
NC(=O)c1cnn2c(-c3cccc(C(F)(F)F)c3)ccnc12	1.3%	18.0%	x	x	0.0%[14.2 µM]	3.1%	-6.6%	6.4%
COc1ccc(S(=O)(=O)n2nc(C)c(S(=O)(=O)N3CCCCCC3)c2C)cc1OC	x	29.3%[46.1 µM]	1.2%	11.0%	x	x	-7.1%	x
Cc1cc(C(=O)COc2ccccc2[N+](=O)[O-])c(C)n1-c1cccc(S(=O)(=O)N2CCOCC2)c1	-16.8%	6.31µM*	-1.6%	-3.4%	u	-9.0%	12.6µM*	6.4%
CC(CC(=O)NCc1ccc(F)cc1)c1ccccc1 (centres undefined)	2.4%	7.7%[46.1 µM]	x	x	10.9%[46.1 µM]	-1.6%	4.2%	-4.8%
CCCCNc1c(N2CCN(C(=O)OCC)CC2)c(=O)c1=O	10.8%	x	-2.5%	9.2%	x	-6.8%	-14.0%	3.4%
